Screening results as filed in PubChem.
Shh pathway inh = blocks Sonic Hedgehog signaling; Shh-LIGHT2 Gli-luciferase reporter, 30 h; inhibition, % (no concentration beside the values); hit rate 2.1% among 22,000; AID 2313;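 active means replicate mean of 65% or more; inconclusive means mean lower but half the replicates past it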;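 further: pathway switched on by Shh-conditioned medium diluted 1 in 25 in low serum; 100 nL library stock added to about 40 µL; 0% = median of neutral wells and 100% = positive control level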
PD-1 reversal = reversal of PD-1 mediated T-cell inhibition; primary human CD4 T cells, PD-L1 beads, CellTiter-Glo 96 h; 29,000 tested, under 10 active; activation, % (concentration not given with the values);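 active means replicate mean of 50% or more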;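 further: 0% = median vehicle wells and 100% = positive control; 100 nL library stock added to about 50 µL; numbers are from one replicate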
YB-1 expression = YB-1 expression inhibition; AID 434959; delta delta Cp (YB-1 minus CDIP) (concentration not given with the values); hit rate 0.37% among 30,000; U2OS, qRT-PCR YB-1 vs CDIP delta delta Cp, 16 h; stronger effect = higher value; zero = DMSO, each unit about twofold;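 active means delta delta Cp rounded down to an integer at or above 3, about 3 SD of DMSO wells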;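 further: higher means less YB-1 transcript or more CDIP transcript relative to DMSO; stock transfer was 100 nL into about 100 µL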
MITF inhib = MITF inhibition; AID 2240; inhibition, % (no concentration beside the values); hit rate 0.28% among 37,000; TRPM1 promoter luciferase, luminescence, 24 h;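 active means most replicates at 85% or more, or half of them and the mean; inconclusive means half reach 85% but not the mean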;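 further: human melanocyte line stably carrying TRPM1 promoter luciferase reporter; 0% = vehicle wells and 100% = a positive control; the first replicate is given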
Numbers without * were called inactive; u = inconclusive; x = not tested or not shown. An excerpt; count on the stated rates, not on these rows.

smiles,Shh pathway inh,PD-1 reversal,YB-1 expression,MITF inhib
CCN[C@H]1CN(CCCOC)S(=O)(=O)c2sc(S(N)(=O)=O)cc21,-51,x,0.17,-4
CC(=O)c1cccc(NC(=O)CN(Cc2ccc(Cl)cc2)S(C)(=O)=O)c1,x,1.0,x,-9
Cc1noc(C)c1S(=O)(=O)N(C)C[C@H]1OCCCC[C@@H](C)Oc2ccc(NC(=O)Cc3ccccc3)cc2C(=O)N([C@H](C)CO)C[C@@H]1C,7,-2.3,0.029,2
COc1ccc(NC(=O)N(C)C[C@@H]2Oc3ccc(NC(=O)Nc4ccc(C(F)(F)F)cc4)cc3C(=O)N([C@H](C)CO)C[C@@H]2C)cc1,-37,x,0.16,7
CCCc1nc2c(o1)N(C(=O)OCC)C(N)=C(C#N)C21CCNCC1,-35,-6.1,-0.15,7
CCOC(=O)c1nn(-c2ccccc2)c(C#N)c1NC(=O)c1nn(CC)cc1Br,66*,1.6,-0.27,-12
Cn1c(SCC(=O)Nc2ccc(Br)cc2)nnc1-c1cccnc1,x,0.5,x,18
C[C@@H]1CN([C@H](C)CO)C(=O)Cc2cc(NC(=O)Cc3ccccc3)ccc2O[C@@H]1CN(C)CC1CCCCC1,0,-1.1,-0.15,-6
C[C@H](CO)N1C[C@H](C)[C@@H](CN(C)S(=O)(=O)c2ccc(Cl)cc2)Oc2ccc(N(C)C)cc2C1=O,-6,0.2,0.24,2
C[C@@H]1CCCCO[C@@H](CN(C)Cc2ccc(C(=O)O)cc2)[C@@H](C)CN([C@H](C)CO)C(=O)c2cc(NS(=O)(=O)c3cn(C)cn3)ccc2O1,-37,1.6,0.14,-12
O=C(Cc1ccccc1)c1ccccc1C(=O)NCc1ccc(F)cc1,u,-4.1,x,14
Cc1ccc(S(=O)(=O)N(C)C[C@@H]2Oc3ccc(NC(=O)CCN4CCOCC4)cc3C(=O)N([C@@H](C)CO)C[C@H]2C)cc1,-27,-1.2,0.05,4
N#C/C(=N\O)C(=O)c1ccco1,-22,0.6,0.14,-6
C[C@@H]1CN([C@H](C)CO)C(=O)c2cccc(N(C)C)c2O[C@H]1CN(C)Cc1ccc(Oc2ccccc2)cc1,20,-2.8,-0.094,-12
C[C@H]1CN([C@@H](C)CO)C(=O)c2cc(NC(=O)Cn3cnnn3)ccc2O[C@@H]1CN(C)S(=O)(=O)c1ccc(Cl)cc1,-26,0.9,-0.39,13
Cc1sc(NC(=O)Cn2nc(C(F)(F)F)cc2C)c(C(N)=O)c1C,2,-1.0,0.013,-3
C[C@@H]1CN([C@H](C)CO)C(=O)c2cccc(NC(=O)Nc3cccc4ccccc34)c2O[C@@H]1CN(C)C(=O)Nc1cccc2ccccc12,-5,0.1,0.15,3
COc1ccc(S(=O)(=O)Nc2ccc3c(c2)CC(=O)N([C@H](C)CO)C[C@H](C)[C@H](CN(C)Cc2ccc(C(=O)O)cc2)O3)cc1,-2,1.2,-0.17,-4
CC(C)(C)c1cn2c3ccccc3nc2n1CCNC1CCCCC1,x,-4.4,x,-36
COc1ccc(NC(=O)N(C)C[C@@H]2Oc3ccc(NS(=O)(=O)c4ccc(F)cc4)cc3C(=O)N([C@H](C)CO)C[C@@H]2C)cc1,-27,1.1,0.056,2
COCCCNc1ncnc(N)c1[N+](=O)[O-],x,1.1,x,-55
COC(=O)c1ccccc1NC(=O)CSc1nc2ncccc2[nH]1,x,1.4,x,-18
COc1ccc(S(=O)(=O)Nc2ccc3c(c2)CC(=O)N([C@@H](C)CO)C[C@H](C)[C@H](CN(C)S(=O)(=O)c2ccccc2)O3)cc1,-24,-0.5,-0.051,-5
O=C(Oc1ccc(S(=O)(=O)c2ccc(OC(=O)c3cccs3)cc2)cc1)c1cccs1,-2,-0.5,-0.2,11
CC(C(=O)Nc1cc(Cl)ccc1O)N1C(=O)c2ccccc2C1=O (stereo unspecified),x,0.7,x,9
COc1ccc(NC(=O)Nc2ccc3c(c2)CC(=O)N([C@H](C)CO)C[C@@H](C)[C@H](CN(C)C(=O)Nc2ccc(F)cc2)O3)cc1,33,x,-0.21,1
COc1cc([C@H]2Oc3c(OC)cc(/C=C/CO)cc3[C@H]2CO)ccc1OC1OC(CO)C(O)C(O)C1O (stereo partly specified),22,x,0.29,x
C[C@H]1CN([C@@H](C)CO)C(=O)c2cccc(NS(=O)(=O)c3cn(C)cn3)c2O[C@@H]1CN(C)C,-30,x,-0.095,6
C[C@@H]1CN([C@H](C)CO)C(=O)Cc2cc(NC(=O)Cc3cn(C)c4ccccc34)ccc2O[C@H]1CN(C)Cc1ccc(-c2ccccc2)cc1,-39,-2.5,-0.18,24
C[C@H](CO)N1C[C@H](C)[C@@H](CN(C)Cc2ccc(Cl)c(Cl)c2)Oc2c(NC(=O)Nc3ccc(F)cc3)cccc2C1=O,-4,-3.5,0.26,20
CNC[C@H]1Oc2c(NC(=O)C3CCCCC3)cccc2C(=O)N([C@@H](C)CO)C[C@H]1C,19,1.6,-0.006,-3
CC(C)NC(=O)N(C)C[C@H]1Oc2ccc(NS(=O)(=O)c3ccc(Cl)cc3)cc2C(=O)N([C@H](C)CO)C[C@H]1C,x,0.2,-0.56,-11
C[C@@H]1CN([C@H](C)CO)C(=O)c2cccc(NC(=O)c3ccncc3)c2O[C@@H]1CN(C)Cc1ccc(C(=O)O)cc1,-5,1.4,-0.37,-12
C[C@@H]1CCCCO[C@H](CN(C)S(=O)(=O)c2ccc(F)cc2)[C@@H](C)CN([C@H](C)CO)C(=O)c2cc(NS(C)(=O)=O)ccc2O1,1,x,-0.11,10
Cn1c(SCC(=O)Nc2c(Cl)cc(Cl)cc2Cl)nnc1-c1ccc(Cl)cc1,x,0.2,x,21
O=C(NCCCN1CCCC1=O)Nc1ccc([N+](=O)[O-])cc1,x,0.0,x,-39
COC(=O)COc1ccc2c(=O)c(-c3ccc(Cl)cc3)coc2c1,-24,-0.4,-0.27,3
CCCCCC(O)CC(O)CCc1ccc(O)c(OC)c1 (stereo unspecified),-34,x,-0.35,x
C[C@H](CO)N1C[C@H](C)[C@@H](CN(C)Cc2ccc(Oc3ccccc3)cc2)Oc2ccc(NS(=O)(=O)c3cccs3)cc2C1=O,1,x,-0.12,5
COC(=O)C1=C[C@@H](O)[C@@H](O)[C@H](O[C@@H]2O[C@H](CO)[C@@H](O)[C@H](O)[C@H]2OC(=O)/C=C/c2ccccc2)C1,-12,2.0,0.064,-4
CC1(C)O[C@@H]2CC3C4C[C@H](F)C5=CC(=O)C=CC5(C)C4C(O)CC3(C)[C@]2(C(=O)CO)O1 (stereo partly specified),u,x,0.13,-16
C[C@@H]1CN([C@@H](C)CO)C(=O)c2cc(NC(=O)CCN3CCOCC3)ccc2O[C@@H]1CN(C)Cc1ccc2c(c1)OCO2,-7,0.2,0.2,-1
CCc1ccc(OCC(=O)Nc2ccc(C)cc2[N+](=O)[O-])cc1,x,-0.3,x,-56
C[C@@H]1CN([C@H](C)CO)C(=O)Cc2cc(NS(=O)(=O)c3cn(C)cn3)ccc2O[C@@H]1CN(C)Cc1ccc2c(c1)OCO2,-30,-0.3,0.25,-3
CC/C=C\C/C=C\C/C=C\C/C=C\C/C=C\CCCC(=O)O,-15,4.9,-0.051,6
Cn1ncc(C#N)c1NC(=O)C1CC(c2ccc(Cl)c(Cl)c2)=NO1 (stereo unspecified),x,1.1,x,11
C[C@H]1CN([C@@H](C)CO)C(=O)c2cccc(NC(=O)Nc3cccc4ccccc34)c2O[C@@H]1CN(C)C(=O)Nc1ccc(C(F)(F)F)cc1,3,-5.3,0.3,6
O=C1CC(SCCc2nc3ccccc3[nH]2)C(=O)N1c1cccc(F)c1 (stereo unspecified),x,2.1,x,-12
O=C(CSc1ccc(Cl)cc1)Nc1cccc(-c2nnc(-c3ccco3)o2)c1,x,0.5,x,-65
C[C@H]1CN([C@@H](C)CO)C(=O)c2cc(NC(=O)Nc3ccc(F)cc3)ccc2O[C@H]1CN(C)S(=O)(=O)c1ccc(F)cc1,x,0.1,-0.29,-25
COc1ccc(NC(=O)N(C)C[C@H]2Oc3c(NS(=O)(=O)c4ccc(F)cc4)cccc3C(=O)N([C@H](C)CO)C[C@H]2C)cc1,-39,0.2,-0.028,3
COc1ccc(NC(=O)Nc2ccc3c(c2)C(=O)N([C@H](C)CO)C[C@H](C)[C@H](CN(C)Cc2ccc(C(=O)O)cc2)OCCCC[C@@H](C)O3)cc1,u,0.4,0.32,5
Cc1noc(C)c1S(=O)(=O)Nc1ccc2c(c1)C(=O)N([C@H](C)CO)C[C@H](C)[C@@H](CN(C)C)OCCCC[C@@H](C)O2,6,x,-0.4,-11
C[C@H]1CN([C@@H](C)CO)C(=O)c2cc(N(C)C)ccc2O[C@@H]1CN(C)Cc1ccc(Oc2ccccc2)cc1,4,-1.5,-0.064,5
C[C@@H]1CN([C@H](C)CO)C(=O)Cc2cc(NC(=O)CCN3CCOCC3)ccc2O[C@H]1CN(C)Cc1ccc(C(F)(F)F)cc1,2,-0.1,0.24,-15
CC(C)[C@@H]1CC[C@@]2(C)[C@H](O)CC[C@@](C)(O)[C@@H]2[C@@H]1OC(=O)/C=C/c1ccccc1,-26,-2.5,-0.42,1
C[C@H](CO)N1C[C@H](C)[C@H](CN(C)S(=O)(=O)c2cn(C)cn2)Oc2c(NC(=O)Nc3ccc4c(c3)OCO4)cccc2C1=O,-25,4.2,0.24,-10
CCC(Sc1nnnn1-c1ccccc1)C(=O)Nc1ccc([N+](=O)[O-])cc1 (stereo unspecified),x,-1.3,x,17
CCn1c(SCC(=O)Nc2cccc(Cl)c2C)nnc1-c1ccncc1,x,0.2,x,-11
C[C@H](CO)N1C[C@H](C)[C@@H](CN(C)S(=O)(=O)c2ccc(Cl)cc2)Oc2c(NC(=O)Nc3cccc4ccccc34)cccc2C1=O,-6,-2.3,-0.084,5

Other structures follow.
smiles,Shh pathway inh,PD-1 reversal,YB-1 expression,MITF inhib
C[C@@H]1CN([C@@H](C)CO)C(=O)Cc2cc(NC(=O)Cn3cnnn3)ccc2O[C@@H]1CN(C)S(=O)(=O)c1ccc(F)cc1,-28,1.1,-0.2,0
C[C@H]1CN([C@@H](C)CO)C(=O)Cc2cc(NC(=O)Nc3ccc(C(F)(F)F)cc3)ccc2O[C@H]1CN(C)S(=O)(=O)c1ccccc1,-9,-2.3,0.1,23
CC(C)NC(=O)N(C)C[C@H]1Oc2ccc(NS(=O)(=O)c3ccccc3)cc2C(=O)N([C@@H](C)CO)C[C@H]1C,x,-0.3,-0.18,-4
CNS(=O)(=O)c1cc(-c2nnc(Nc3ccc(C(=O)N(C)C)cc3)c3ccccc23)ccc1C,x,4.0,x,-21
CCCCn1c2ccccc2c2nnc(SCCN3CCOCC3)nc21,x,-5.7,x,-13
C[C@@H]1CN([C@H](C)CO)C(=O)c2cccc(NC(=O)c3nc4ccccc4s3)c2O[C@H]1CN(C)C(=O)NC1CCCCC1,12,-1.5,-0.47,-4
C[C@@H]1CN([C@H](C)CO)C(=O)c2cc(NC(=O)CCN3CCOCC3)ccc2O[C@@H]1CN(C)CC1CC1,-18,x,-0.22,8
C[C@@H]1CN([C@H](C)CO)C(=O)c2cc(N(C)C)ccc2O[C@@H]1CN(C)Cc1ccc(C(F)(F)F)cc1,1,x,-0.063,-3
N#Cc1c(-c2ccccc2)nc(SCC(=O)Nc2ccc(Oc3ccccc3)cc2)[nH]c1=O,x,1.4,x,-13
COc1cc(OC)cc(C2C(C#N)=C(N)OC(N)=C2C#N)c1,4,0.4,-0.17,-2
CN(C)CCN(Cc1ccccc1)c1ccccn1,12,x,0.19,-6
CC(C)NC(=O)Nc1ccc2c(c1)CC(=O)N([C@@H](C)CO)C[C@H](C)[C@@H](CN(C)CC1CCCCC1)O2,18,0.1,-0.27,1
COc1ccc(CN(C)C[C@H]2Oc3c(NC(=O)c4ccncc4)cccc3C(=O)N([C@@H](C)CO)C[C@@H]2C)cc1,-2,x,-0.23,0
C[C@H]1CN([C@@H](C)CO)C(=O)c2cc(NS(=O)(=O)c3ccccc3)ccc2O[C@H]1CN(C)Cc1ccc(C(=O)O)cc1,x,-0.1,-0.27,-2
